GIV Gai3 FP = blocks GIV peptide binding to rat Galpha-i3; Galpha-i3/FITC-GIV peptide fluorescence polarization, 90 min; hits give low values; scaled: aluminum fluoride 0%, vehicle 100%; percent of control (FP), % (test concentration not listed); P08753; 210,000 tested, 0.42% active;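 active = replicate mean at 85% of control or lower, very high polarization wells dropped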;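 note: wells of about 15 µL received 100 nL stock; the first replicate is given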
Target sequence (P08753 whole entry, looked up): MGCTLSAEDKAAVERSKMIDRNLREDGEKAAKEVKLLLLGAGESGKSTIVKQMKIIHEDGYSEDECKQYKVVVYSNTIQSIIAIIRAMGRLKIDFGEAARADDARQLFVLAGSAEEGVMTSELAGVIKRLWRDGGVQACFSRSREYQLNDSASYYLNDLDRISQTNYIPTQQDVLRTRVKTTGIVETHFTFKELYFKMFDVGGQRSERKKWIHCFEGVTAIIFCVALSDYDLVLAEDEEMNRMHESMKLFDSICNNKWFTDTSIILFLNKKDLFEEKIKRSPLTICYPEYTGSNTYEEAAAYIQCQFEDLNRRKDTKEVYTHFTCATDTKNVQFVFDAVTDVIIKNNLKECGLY
Sa growth inh = S. aureus growth inhibition; relative growth, % (concentration not given with the values); S. aureus RN4220 growth, OD600, 20 h, 42 °C; hits give low values; 170,000 tested, 0.53% active; AID 720641;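 active = growth at 42 °C up to 50% and 20 or more points under that at 30 °C, or under 10% at both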;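 note: 300 nL library stock went into each well; scaled to the means of positive and negative controls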
HCMV NEC inh = disrupts HCMV UL50-UL53 complex binding. AID 1918969. HTRF UL50-UL53 interaction, normalized percent inhibition. inhibition, % (no concentration beside the values). 190,000 tested, 0.15% active;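 active = both replicates at 50% or more, plus weaker picks with an unusually low signal ratio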;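 note: stock transfer was 100 nL into about 20 µL; 0% = negative control wells and 100% = wells with untagged competitor protein; inactives centre near -12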
Sa growth inh second temp = further read-out of Sa growth inh, marked with its call; relative growth, %; measured here: growth at 30 °C;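 optical density after 20 h as mean of two plates; 100% = untreated growth and lower means inhibition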
An asterisk follows results filed as active; . = no result given; & = joins results of further samples.

SMILES	GIV Gai3 FP	Sa growth inh	Sa growth inh second temp	HCMV NEC inh
O=S(=O)(c1cnc[nH]1)N1CCN(C(c2ccc(F)cc2)c2ccc(F)cc2)CC1	105.4	91.5	89.1	5.9
Cn1c(=O)c(-c2noc(C(=O)NCc3ccccn3)n2)nn(-c2ccccc2)c1=O	103.1	.	.	-110.1
C=CCN(CC=C)C(=O)Cc1ccc(C)cc1	107.7	100.9	99.6	-7.0
CCCNC(=O)Nc1ccc(-c2noc(-c3ccsc3)n2)cc1	111.6	.	.	-12.8
C=CCc1ccccc1OCc1nc2ccccc2[nH]1	107.5	92.5	77.8	.
CCOC(=O)c1sc(NC(=O)c2c(Br)cnn2CC)c(C#N)c1C	106.2	84.8	70.2	-0.2
CC(C)Cc1nnc(NC(=O)C2c3ccccc3Oc3ccccc32)s1	97.8	.	.	-16.7
CCNC(C)C(=O)Nc1ccc(C)cc1 (stereo not drawn)	.	77.3	93.2	-5.8
Cc1nn(C(=O)c2ccc(Cl)cc2)c(C)c1S(=O)(=O)N1CCCCCC1	103.6	88.8	91.4	.
CCC(=O)Nc1sc(CC#N)nc1-c1ccc(C)cc1	.	97.4	95.9	-8.1
Cc1ccc2c(c1)C1CN(C)CCC1N2C(=O)Nc1ccc(F)cc1F (stereo not drawn)	.	101.8	95.7	-1.7
CC(=O)N1[C@@H](c2ccc(F)cc2)SC[C@H]1C(=O)O	.	99.4	94.2	-12.8
CCSc1nnc(C)c(=O)[nH]1	.	91.0	86.2	-18.0
COc1ccc(NC(C)C(=O)N/N=C/c2ccccc2OC)cc1 (stereo not drawn)	105.1	101.0	91.5	-6.9
CSc1nc(N)nc(SCCS(=O)(=O)c2ccc(Cl)cc2)c1C#N	106.6	149.0	96.5	-9.5
O=c1[nH]c2c(s1)C(c1ccco1)C1C3CCC(C3)C1S2 (stereo not drawn)	120.3	82.6	72.3	.
CC(NC(=O)C1CCCN1C(=O)c1cccs1)c1ccc(-n2ccnc2)cc1 (stereo not drawn)	.	62.8	90.5	-26.3
COC(=O)c1ccc(Cl)cc1NC(=O)c1cccnc1Oc1ccccc1	103.1	114.4	84.2	.
C=C(C)C1CC=C(CNc2ccc3c(c2)OCO3)CC1 (stereo not drawn)	204.6	56.6	51.9	-27.0
O=C(c1ccc(-n2nnc3cccnc32)cc1)N1CCOCC1	104.3	.	.	-49.0
Fc1ccc(-c2nn3c(-c4ccncc4)nnc3s2)cc1Br	103.5	.	.	-1.6
O=C(O)c1cc(N2CCC(N3CCCCC3)CC2)ccc1NC(=O)C1CCC1	98.4	.	.	-36.5
CCOC(=O)Cc1cc(=O)c2c(=O)n(-c3ccccc3)[nH]c2[nH]1	105.9	90.4	94.2	7.2
O=C(c1cccc(C(=O)n2cnc3ccccc32)c1)n1cnc2ccccc21	98.3	97.2	94.8	-3.7
O=c1c2sc3ccccc3c2n(Cc2ccc(F)cc2Cl)c(=O)n1Cc1ccccc1	101.9	96.5	87.4	-12.8
SMILES	GIV Gai3 FP	Sa growth inh	Sa growth inh second temp	HCMV NEC inh
O=C(NCc1cccc(Br)c1)C1CCCCN1S(=O)(=O)c1ccc(F)cc1 (stereo not drawn)	104.4	127.2	86.6	.
Cc1ccc2c(CC(=O)N(Cc3cccc(Cl)c3)C3CCS(=O)(=O)C3)coc2c1 (stereo not drawn)	105.1	114.2	86.2	-12.7
COC(=O)/C(C#N)=C\Nc1ccccn1	109.5	101.2	94.1	5.6
COCCOC(=O)c1c(C)oc2ccc(OCc3cccc(Br)c3)cc12	108.3	.	.	4.7
Cc1cc(C(F)(F)F)c2c(N)c(C(=O)Nc3ccc(F)cc3)sc2n1	60.9*	.	.	-18.4
COc1ccccc1-c1[nH]ncc1CNCCc1ccccc1	105.7	101.0	86.9	.
O=C(CCc1nnc2n(Cc3ccccc3)c(=O)c3ccccc3n12)NC1CCN(Cc2ccccc2)CC1	103.7	.	.	-15.6
O=C(Nc1ccc(N2CCCCC2)cc1)C1CCCC1	.	80.5	92.2	-8.0
O=c1c2[nH]c3ccccc3c2ncn1CCc1ccccc1	101.3	.	.	-20.2
CCOc1ccc(CNC(=O)Cn2nc(N3CCN(c4ccccc4)CC3)ccc2=O)cc1	102.2	108.3	87.3	.
CC1CC(=O)Nc2ccccc2N1C(=O)Cn1cnc2ccc(Br)cc2c1=O (stereo not drawn)	.	96.7	95.3	8.6
CC(O/N=C/c1ccco1)C(=O)N1CCN(Cc2ccccc2)CC1 (stereo not drawn)	.	71.9	82.8	-32.4
C=CCN1COc2c(ccc3c(C(=O)OCC)c(NC(=O)c4ccccc4)sc23)C1	.	81.0	96.7	8.1
CCc1cc2c(=O)c(-c3nc(C)cs3)coc2cc1O	.	90.6	88.8	-13.0
O=c1cc(-c2ccccc2)n2c(SCc3ccc(F)cc3)nnc2[nH]1	105.8	118.4	89.3	.
CCn1c(=S)[nH]c2c(c1=O)C1(CCCC1)Cc1ccccc1-2	99.7	82.7	82.8	-33.1
OCCNc1nc2ccccc2n1-c1ncnc2sc3c(c12)CCCC3	.	71.0	1.3	22.5
CCN(CC(=O)Nc1ccccc1)S(=O)(=O)c1ccccc1	98.0	91.3	94.8	-6.3
Cc1ccc(S(=O)(=O)CC(c2ccccc2)N2CCOCC2)cc1 (stereo not drawn)	104.7	96.0	86.7	.
COc1ccccc1CC(=O)N(C(C)C)C(C)C	101.3	110.1	77.9	-15.8
N#Cc1c(-c2ccccc2)cc(-c2ccccc2)nc1N	.	84.3	87.1	6.9
CC(=O)N1c2ccccc2C(C)(c2ccccc2)CC1(C)C (stereo not drawn)	.	97.5	104.0	-2.4
Cc1cc(NC(=O)CSc2nc3c([nH]c4ccccc43)c(=O)n2-c2ccccc2F)no1	102.2	134.0	83.6	.
CC1CC(Nc2ccccc2)c2ccccc2N1C(=O)c1ccc(NS(C)(=O)=O)cc1 (stereo not drawn)	99.6	.	.	9.1
CCCCc1noc2c1/C(=N\O)CC(c1ccccc1)C2 (stereo not drawn)	105.7	119.0	111.8	-6.0

GIV Gai3 FP: hit marks shown above.
Molecule	GIV Gai3 FP	Sa growth inh second temp
Cc1cc(C(F)(F)F)c2c(N)c(C(=O)Nc3ccc(F)cc3)sc2n1	60.9*	.

The results go on.
SMILES	GIV Gai3 FP	Sa growth inh	Sa growth inh second temp	HCMV NEC inh
NS(=O)(=O)c1ccc(CCNC(=O)CSc2nc3ccccc3c(=O)n2C2CCCC2)cc1	.	90.5	91.5	10.1
CCN1C(=O)/C(=C2/Sc3ccc(OC)cc3N2C)OC1=S	100.4	102.4	113.5	4.7
Cc1noc(C)c1C(=O)N(c1ccccc1)C(C(=O)NC1CCCC1)c1ccc(F)cc1 (stereo not drawn)	103.5	106.8	107.4	6.8
COc1ccc(S(=O)(=O)N(CC(=O)N(C)Cc2ccccc2)c2ccc(Cl)cc2)cc1	95.9	101.9	83.4	-35.9
COC(CNC(=O)c1ccc(NC2=NC3CS(=O)(=O)CC3S2)cc1)OC (stereo not drawn)	97.4	99.7	89.9	-17.2
CCOc1ccc(CNC(=O)Cc2ccc(NC(=O)N3CCSc4ncccc43)cc2)cc1	104.5	78.7	90.8	.
O=C(O)C1CCCN1S(=O)(=O)c1cccs1 (stereo not drawn)	.	134.6	94.5	1.0
Nc1nonc1C(=O)NCc1ccc2c(c1)OCO2	105.6	103.9	82.0	-6.8
O=C1c2ccccc2C(Nc2ccc(F)cc2)N1Cc1ccc2c(c1)OCO2 (stereo not drawn)	92.3	.	.	-30.8
COC(=O)C(NC=O)C(O)(C#Cc1ccccc1)C(F)(F)F (stereo not drawn)	.	99.5	88.3	-24.1
O=C(NCc1ccncc1)C1CCN(S(=O)(=O)c2ccccc2)CC1	100.2	111.4	91.8	-6.4
CCCCn1nnc(NC(=O)c2cccc(F)c2)n1	103.8	105.0	99.9	3.9
CC(=O)N1CCOc2ccc(S(=O)(=O)NCC3CCC(C(=O)Nc4ccc(C)cc4)CC3)cc21 (stereo not drawn)	101.7	93.0	87.2	-16.1
Cc1ccc2cc(-c3noc(CCCC(=O)Nc4ccccc4C)n3)c(=O)[nH]c2c1	112.3	.	.	-28.9
NCCCCn1ccnc1	106.4	102.5	76.0	-19.4
O=C(CC1(O)C(=O)N(Cc2ccccc2)c2ccccc21)c1ccncc1 (stereo not drawn)	.	104.8	103.2	11.4
O=c1c2c([nH]c3ccccc13)CCCC2	105.0&104.4	86.4&94.0	75.1&87.3	-27.2&5.9
O=C(Nc1cc(-c2ccc(Cl)cc2)[nH]n1)C1Cc2ccccc2C1	105.5	111.9	97.7	7.0
CCOC(=O)C1=C(C)NC2=C(C(=O)CC(c3ccc(OC)c(OC)c3)C2)C1c1cc(OC)ccc1OC (stereo not drawn)	100.0	.	.	-33.5
Cc1cccc(-n2c(=O)c3c(c4cc(C)ccc4n3C)n(CC(=O)Nc3ccc(C)c(C)c3)c2=O)c1	107.1	107.4	83.9	.
CN(C)C(=O)COc1ccc(-c2nc(-c3ccccc3)no2)cc1	106.1	.	.	-30.5
O=C(O)c1ccc(Cn2ccc3ccccc32)o1	104.2	105.7	90.6	-30.2
CCOC(=O)N/N=C/c1ccccc1C(F)(F)F	.	102.2	89.6	-10.2
CC(C)(C)CC(=O)Nc1cccc(F)c1	107.0	86.3	96.6	4.1
COc1ccc(CCNC(=O)CCS(=O)(=O)c2ccc3c(c2)oc(=O)n3C)cc1OC	115.0	109.9	97.1	.

Exported with values under each structure: 18 of the compounds above.
Values in the order: GIV Gai3 FP, Sa growth inh, Sa growth inh second temp, HCMV NEC inh
NS(=O)(=O)c1ccc(CCNC(=O)CSc2nc3ccccc3c(=O)n2C2CCCC2)cc1
  ., 90.5, 91.5, 10.1
CCN1C(=O)/C(=C2/Sc3ccc(OC)cc3N2C)OC1=S
  100.4, 102.4, 113.5, 4.7
Cc1noc(C)c1C(=O)N(c1ccccc1)C(C(=O)NC1CCCC1)c1ccc(F)cc1 (stereo not drawn)
  103.5, 106.8, 107.4, 6.8
COc1ccc(S(=O)(=O)N(CC(=O)N(C)Cc2ccccc2)c2ccc(Cl)cc2)cc1
  95.9, 101.9, 83.4, -35.9
COC(CNC(=O)c1ccc(NC2=NC3CS(=O)(=O)CC3S2)cc1)OC (stereo not drawn)
  97.4, 99.7, 89.9, -17.2
CCOc1ccc(CNC(=O)Cc2ccc(NC(=O)N3CCSc4ncccc43)cc2)cc1
  104.5, 78.7, 90.8, .
O=C(O)C1CCCN1S(=O)(=O)c1cccs1 (stereo not drawn)
  ., 134.6, 94.5, 1.0
Nc1nonc1C(=O)NCc1ccc2c(c1)OCO2
  105.6, 103.9, 82.0, -6.8
O=C1c2ccccc2C(Nc2ccc(F)cc2)N1Cc1ccc2c(c1)OCO2 (stereo not drawn)
  92.3, ., ., -30.8
COC(=O)C(NC=O)C(O)(C#Cc1ccccc1)C(F)(F)F (stereo not drawn)
  ., 99.5, 88.3, -24.1
O=C(NCc1ccncc1)C1CCN(S(=O)(=O)c2ccccc2)CC1
  100.2, 111.4, 91.8, -6.4
CCCCn1nnc(NC(=O)c2cccc(F)c2)n1
  103.8, 105.0, 99.9, 3.9
CC(=O)N1CCOc2ccc(S(=O)(=O)NCC3CCC(C(=O)Nc4ccc(C)cc4)CC3)cc21 (stereo not drawn)
  101.7, 93.0, 87.2, -16.1
Cc1ccc2cc(-c3noc(CCCC(=O)Nc4ccccc4C)n3)c(=O)[nH]c2c1
  112.3, ., ., -28.9
NCCCCn1ccnc1
  106.4, 102.5, 76.0, -19.4
O=C(CC1(O)C(=O)N(Cc2ccccc2)c2ccccc21)c1ccncc1 (stereo not drawn)
  ., 104.8, 103.2, 11.4
O=c1c2c([nH]c3ccccc13)CCCC2
  105.0&104.4, 86.4&94.0, 75.1&87.3, -27.2&5.9
O=C(Nc1cc(-c2ccc(Cl)cc2)[nH]n1)C1Cc2ccccc2C1
  105.5, 111.9, 97.7, 7.0

Additional results
SMILES	GIV Gai3 FP	Sa growth inh	Sa growth inh second temp	HCMV NEC inh
COc1cccc(-n2cc(C(=O)Nc3cccc(C(F)(F)F)c3)c3ccccc3c2=O)c1	111.4	85.8	102.9	.
CC(C)n1cnc2cc(NCc3ccc(Cl)cc3)ccc21	103.6	45.8	14.5	-12.4
COc1cc(OC)cc(C(=O)Nc2ccc3oc(-c4ccc(OC)c(Cl)c4)nc3c2)c1	105.4	.	.	-5.0
O=C(/C=C/c1ccco1)NC(=S)Nc1ccccc1O	161.9	96.8	59.8	-31.4
O=C(CCC(=O)N1Cc2ccccc2Oc2ncccc21)Nc1ccc(Cl)cc1	98.2	96.9	79.2	.
Fc1ccc(Nc2cc(-c3ccccc3)nc3nc(-c4cccnc4)nn23)cc1F	107.4	.	.	-9.1
CN1C(=O)C(=C2C=C(c3ccccc3)N(Cc3ccco3)C3=C2CCCC3)C(=O)N(C)C1=O	130.3	102.0	89.7	-23.3
CN1C(=O)C(C)(C)c2cc(S(=O)(=O)N3CCCC(CN4CCc5ccccc5C4)C3)ccc21 (stereo not drawn)	101.0	.	.	-26.5
COc1cccc(NC(=O)c2sc3nc(N4CCOCC4)c4c(c3c2N)CC(C)(C)OC4)c1	104.2	84.3	91.7	-14.0
CCCSc1nnc(Cn2c(=O)sc3ccccc32)n1-c1ccccc1C	105.8	96.8	93.7	-30.0
Cc1ccccc1NC(=O)/C(C#N)=C/c1ccc(Cl)cc1Cl	105.1	93.8	62.0	-20.8

The order is random; about 0.8% have a hit in one of these screens.
